Rango-impB inh: prevents formation of the Rango-importin beta complex | Q14974 | Rango CFP/YFP FRET sensor + importin beta, 45 min | Potency, µM (doses to about 92.2 µM), inactives show at the highest dose inhibition of complex formation | 340,000 tested, 0.031% active | AID 540263; active = rising FRET ratio curve, often small or poorly fitted; inconclusive = mostly compound fluorescence or quenching in the first reads; inactive = flat curves in all reads;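 note: potency is the fitted concentration of half-maximal effect; 0% = DMSO wells and 100% = buffer wells lacking importin beta; nearly all actives have a fitted effect of over 15% in size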
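FRET biosensor (snurportin 1 IBB flanked by EYFP and cerulean), 50 nM, with compound 5 min, then 0.125 microM importin beta in PBS, 1 mM DTT, 0.02% Tween-20, 0.1% BSA. CFP/YFP ratio read after 45 min at room temperature; pre-read flags interference.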
GLA inh pH 4.5: inhibitors of human alpha-galactosidase A at pH 4.5; P06280; purified enzyme, 4-MU-alpha-Gal fluorescence, pH 4.5; activity change, negative = inhibition, % at 105 µM; 230,000 tested, under 10 active; AID 1467; inconclusive = small, poorly fitted or top-dose-only inhibition, or a rising curve; inactive = flat fitted curve, though single readings scatter; no compound was filed as active;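 note: 0% = full activity with enzyme and -100% = basal without enzyme; dose as in the result columns while the protocol names 77 µM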
Target sequence (P06280 whole entry, looked up): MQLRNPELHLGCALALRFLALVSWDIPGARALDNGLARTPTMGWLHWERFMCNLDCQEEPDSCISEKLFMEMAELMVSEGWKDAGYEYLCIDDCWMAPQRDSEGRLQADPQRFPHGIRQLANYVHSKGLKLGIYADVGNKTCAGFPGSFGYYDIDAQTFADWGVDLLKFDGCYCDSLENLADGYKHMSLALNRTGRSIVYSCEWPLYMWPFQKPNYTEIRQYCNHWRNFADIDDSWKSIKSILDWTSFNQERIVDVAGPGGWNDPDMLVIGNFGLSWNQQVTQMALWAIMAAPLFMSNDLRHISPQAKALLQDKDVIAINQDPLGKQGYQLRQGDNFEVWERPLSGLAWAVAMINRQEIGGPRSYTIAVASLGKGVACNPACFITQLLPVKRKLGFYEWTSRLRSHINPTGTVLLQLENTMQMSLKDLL
miR-21 reporter: miR-21 reporter, rising signal; AID 2288; Potency, µM (top dose mostly 38.3 µM), inactives show at the top dose reporter change, positive = more light; 340,000 tested, under 10 active; HeLa miR-21 FLuc reporter, luciferase, 48 h; active = well fitted rising curve with a large enough effect; inconclusive = small, poorly fitted or top-dose-only effect; inactive = no such curve, though single readings can be large or run the other way;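 note: % of control where 0% means no effect; miR-21 action dims this reporter so a rising signal means less miR-21 action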
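Compounds were titrated across several concentrations (up to approximately 40 uM) and incubated 48 hours with HeLa miR-21-FLuc reporter cells (miR-21 target sequence downstream of FLuc, endogenous miR-21). Readout was firefly luciferase luminescence after lytic detection reagent.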
Rango release inh: inhibition of RanGTP-driven Rango-importin beta dissociation; 340,000 tested, 0.071% active; Potency, µM (titrated, usually from 46.1 µM), inactives show at the top dose activity change, negative = inhibition; Biochemical FRET Rango-importin beta, RanGTP-induced dissociation; O95149+P62826; AID 540253; active means falling FRET ratio curve, often poorly fitted, with flat reads before Ran was added; inconclusive means other falling curves, or compound fluorescence or quenching; inactive means flat or rising ratio curve;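 note: potency is the fitted concentration of half-maximal effect; % of control where 0% means no effect; nearly all actives have a fitted effect of over 45% in size; -100% = wells without RanGTP and RCC1; the record marks most hits as doubtful in a second field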
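Compounds sat 5 min at room temperature with 0.1 uM Rango biosensor plus 0.25 uM importin beta, then FRET pre-read. RanGTP-RCC1 (0.6 uM Ran, 2mM GTP, 0.2 uM RCC1) added for 45 min, and the CFP/YFP post-read measured blocked complex dissociation.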
* marks the source's active call; other numbers are inactive results; ? = inconclusive; nt = no result given.

nr	miR-21 reporter	Rango-impB inh	Rango release inh	GLA inh pH 4.5	molecule
1	-4.5%	?	?	-3.2	CN1CCc2c(sc(N)c2C(=O)O)C1
2	-26.1%	0.6%	1.8%	9.4	O=C1c2ccccc2C(=O)c2c1cccc2N1CCCC1
3	-1.3%	0.0%	0.5%	-15.4	COc1cccc(-c2nnc(SCC(=O)N3CCCc4ccccc43)o2)c1
4	-2.2%	-11.9%	-0.5%	-3.0	O=C(CN1CCc2ccccc2C1)Nc1cccc(S(=O)(=O)N2CCCC2)c1
5	-8.6%	1.3%	0.8%	1.1	Cc1ccc(CC(=O)NC(C)CCc2ccccc2)cc1 (stereo not given)
6	4.1%	0.9%	-1.2%	-23.8	Cc1ccc(S(=O)(=O)Oc2ccc(/C=N/NC(=O)c3cccnc3)cc2)cc1
7	-3.5%	-1.9%	1.2%	-2.9	CCN(CC)c1nc(Nc2ccccc2)nc(Oc2ccc(C(=O)OC)cc2)n1
8	-12.8%	-3.5%	-14.4%	0.9	O=C(CSc1ccc2ccccc2n1)NCc1ccc2c(c1)OCO2
9	-6.3%	-2.4%	-19.9%	-4.9	COc1ccc(NC(=O)C(c2ccccc2)N(C)C(=O)CNC(C)=O)cc1 (stereo not given)
10	-1.2%	-4.4%	0.4%	-3.8	CCCCNC(=O)C1c2cc(OC)c(OC)cc2C(=O)N(C)C1c1cccs1 (stereo not given)
11	-7.8%	-0.2%	0.7%	-26.5	CC(=O)c1ccc(NC(=O)/C(=C\c2ccccc2)NC(=O)/C=C/c2ccccc2)cc1
12	1.1%	-2.2%	3.1%	nt	COc1cc(S(=O)(=O)Nc2ncn[nH]2)ccc1Cl
13	-10.4%	-4.5%	-5.3%	-0.9	Cn1c(-c2ccccc2)cnc1SCC(=O)NCc1ccco1
14	12.6%	-2.8%	-7.0%	nt	O=C(c1cccs1)N1CCN(C23CC4CC(CC(C4)C2)C3)CC1
15	nt	1.7%	2.9%	nt	CC1(C)CC(NC(=O)c2cc(S(=O)(=O)N3CCOCC3)c(Cl)cc2Cl)CC(C)(C)N1
16	nt	-6.4%	-12.8%	nt	COCCn1c(SCC(=O)c2c(N)n(C3CC3)c(=O)[nH]c2=O)nnc1-c1cccc(C)c1
17	-0.6%	0.4%	4.5%	nt	CCOC(=O)N1CCN(C(=O)c2c[nH]c3ccc(S(=O)(=O)N(C)c4ccc(OCC)cc4)cc3c2=O)CC1
18	-38.1%	-0.7%	-11.5%	-5.7	c1ccc(-c2csc(N3CCCCCC3)n2)cc1
19	-0.8%	-2.7%	-0.8%	-2.8	O=C(O)CNC(=S)N(Cc1ccccc1Cl)C1CCCC1
20	-1.6%	-1.1%	?	-0.3	O=C(CSc1ccc(F)cc1)NC(=O)NCc1ccccc1

Entries listed so far containing a COOH group:
nr	miR-21 reporter	Rango-impB inh	Rango release inh	GLA inh pH 4.5	molecule
1	-4.5%	?	?	-3.2	CN1CCc2c(sc(N)c2C(=O)O)C1
19	-0.8%	-2.7%	-0.8%	-2.8	O=C(O)CNC(=S)N(Cc1ccccc1Cl)C1CCCC1

Next entries follow:
nr	miR-21 reporter	Rango-impB inh	Rango release inh	GLA inh pH 4.5	molecule
21	-0.3%	-2.1%	-6.3%	-2.9	C/C(=C/C=N/Nc1nc(N2CCCCC2)nc(N2CCCCC2)n1)c1ccccc1
22	-7.6%	1.1%	-2.8%	2.9	Cc1ccccc1OCC(=O)Nc1ccc2c(c1)Cc1ccccc1-2
23	nt	3.8%	11.6%	nt	COc1ccc(C=NNc2ccc(S(=O)(=O)Nc3ccccc3C(=O)O)cc2[N+](=O)[O-])c(OC)c1
24	2.7%	-3.1%	-10.1%	nt	Cc1cc2c3c([nH]c2cc1S(=O)(=O)N1CCC2(CC1)OCCO2)CC(C)(C)CC3=O
25	1.6%	-1.9%	5.1%	-7.6	O=C(O)CNC(=O)c1ccc(OC(F)F)cc1
26	-7.1%	-0.8%	-6.1%	-0.9	CCCOc1ccc(C(=O)NNC(=S)NC(=O)c2cc(-c3ccc(Cl)cc3)nc3ccccc23)cc1
27	-1.4%	0.1%	-16.7%	6.3	CCOC(=O)C1(Cc2ccccc2)CCN(Cc2csc(C(C)=O)c2)CC1
28	-3.1%	-0.7%	0.0%	-2.9	CCCC(=O)NNc1cc(=O)c2c(=O)n(C)c(=O)n(C)c2[nH]1
29	nt	-1.9%	14.0%	nt	O=C(CSc1nc(C(F)(F)F)cc(=O)[nH]1)Nc1ccc2c(c1)OCCO2
30	22.7%	-4.2%	9.1%	-20.8	CCCn1c(SCC(=O)Nc2ccccc2N2CCCCC2)nc2c1c(=O)n(C)c(=O)n2C
31	nt	-1.5%	-9.5%	nt	CCc1noc(C)c1C(=O)Nc1cc(Cl)ccc1N1CCOCC1
32	1.9%	1.1%	-2.3%	nt	CCOc1ccc(N(CC(=O)NCc2ccccc2)C(=O)Cn2nnc(-c3ccc(C)o3)n2)cc1
33	-4.3%	3.2%	18.5%	nt	CCN(CC(=O)NCc1ccc(Cl)cc1)C(=O)/C=C/c1cc(OC)c(OC)c(OC)c1
34	-1.9%	0.8%	1.8%	2.5	Cc1ccccc1NC(=O)Cn1nc(-c2ccccc2)nc1-c1ccccc1
35	-3.6%	1.4%	12.0%	-5.0	Cc1ccc(N(CN2C(=O)C3C4CCC(C4)C3C2=O)C(=O)c2ccco2)cc1 (stereo not given)
36	-13.9%	-2.5%	-10.8%	1.9	Cc1ccc2nc(NC(=O)C3CCCN(S(=O)(=O)c4cnc[nH]4)C3)sc2c1 (stereo not given)
37	2.2%	1.4%	14.3%	27.5	Nc1c(S(=O)(=O)c2cccs2)c2nc3ccccc3nc2n1Cc1ccccc1
38	-6.6%	6.0%	-9.2%	7.4	COc1ccc(-n2c(SCC(=O)N3CCCC(C)C3)nnc2-c2cccnc2)cc1 (stereo not given)
39	19.3%	-2.9%	-10.6%	nt	CN1C(=O)/C(=C/c2cccc(Cl)c2)Sc2ccc(C(=O)N3CCCC3)cc21
40	-2.2%	-0.3%	-3.1%	nt	Cc1cc(NC(=O)CN2CCN(c3ccccn3)CC2)ccc1Br
41	-27.2%	-0.9%	10.8%	nt	Nc1ccccc1N=Nc1ccccc1N
42	-11.3%	-3.3%	10.0%	5.0	O=C(CSc1nnc(Cn2c(=O)sc3ccccc32)n1-c1ccccc1)N1CCCC1
43	-24.2%	0.1%	-4.9%	2.8	CCOC(=O)c1c(-c2ccccc2)csc1NC(=S)NC
44	-5.2%	?	-13.1%	-21.7	COC(=O)C(C)N1C(=O)S/C(=C\c2cc(C)n(-c3ccccn3)c2C)C1=O (stereo not given)
45	-5.5%	-1.3%	4.0%	-4.1	Cc1ccc(CNC(=O)CCc2nc(-c3cccs3)no2)cc1
46	nt	-0.6%	3.0%	nt	O=C(C[C@H]1C/C=C\C[C@H](Cc2ccc(F)cc2)C(=O)OC[C@@H]2CCCN2C1=O)N[C@H](CO)Cc1ccccc1
47	-17.5%	-2.4%	-12.2%	nt	COc1ccc(C(=O)c2ccc(Br)cc2)cc1
48	nt	3.4%	26.3%	nt	O=C(CCN1C(=O)c2ccccc2S1(=O)=O)N1CCN(c2ccccc2F)CC1
49	-20.1%	6.7%	-8.1%	-1.2	Cc1nc2cc(NC(=O)Nc3ccc(Br)cc3)ccc2o1
50	18.9%	0.1%	-0.7%	8.4	O=c1[nH]c(NCc2ccco2)nnc1Cc1ccccc1Cl
51	-23.4%	?	0.4%	2.5	O=C(CSc1ccc(-c2ccc(Cl)cc2)nn1)Nc1ccc2c(c1)OCCO2
52	-6.5%	3.4%	-17.2%	5.1	CCn1c(C)c(C(C)=O)c(N2CCCC2)nc1=S
53	-23.2%	-1.0%	-7.2%	0.2	Cc1[nH]n(-c2ccccc2)c(=O)c1/C=N/NC(=O)c1ccoc1C
54	nt	0.0%	6.6%	nt	CCN(C(=O)CSc1nnc(-c2ccccc2OC)n1N)c1c(N)n(Cc2ccccc2)c(=O)[nH]c1=O
55	-25.0%	-1.5%	-5.6%	-3.5	Nc1c(C(=O)Nc2ccc3c(c2)OCCO3)nnn1CCc1ccccc1
56	?	0.5%	5.6%	2.5	CCC(C)NCCOc1ccc(C(C)(C)c2ccccc2)cc1 (stereo not given)
57	7.7%	5.0%	-9.6%	-4.7	CC1=C(C(=O)OCC(C)C)C(c2ccccc2Cl)NC(=O)N1C (stereo not given)
58	-1.3%	-4.5%	1.0%	1.6	CCOC(=O)C1(CC2CCCCO2)CCN(S(=O)(=O)c2ccccc2)CC1 (stereo not given)
59	-3.8%	1.3%	-5.7%	nt	CC(=O)c1cc2c(cc1NC(=O)Cn1nc(-c3ccc(F)cc3)ccc1=O)OCO2
60	-8.1%	4.0%	0.7%	3.0	CCSCCOC(=O)C1=C(C)NC(=O)NC1c1ccc2c(c1)OCO2 (stereo not given)
61	-13.0%	1.0%	-13.2%	-9.0	O=C1CC(c2ccccc2)=NN1c1nc(-c2ccccc2)cs1
62	-24.7%	-1.4%	-13.2%	nt	Cc1cc(C(=O)Nc2ccncc2)ccc1[N+](=O)[O-]
63	4.3%	-1.4%	1.3%	7.0	CC(Sc1nc(=O)cc(N)n1CCc1ccccc1)C(=O)NCc1ccccc1 (stereo not given)
64	-3.8%	-0.7%	-5.8%	8.1	Cc1c(NC(=O)c2ccc(N3C(=O)C4C5C=CC(C5)C4C3=O)cc2)c(=O)n(-c2ccccc2)n1C (stereo not given)
65	-53.9%	?	?	-11.5	Cc1ccc(N=Nc2[nH]c3ccccc3c2O)cc1
66	-9.5%	2.0%	-0.9%	nt	COc1ccc(C(C)(C)C)cc1NC(=O)C1CCCO1 (stereo not given)
67	-5.7%	0.4%	-4.6%	-0.8	COc1ccccc1OCC#CCNC1CCCCC1C (stereo not given)
68	-11.4%	-2.3%	-8.7%	8.8	CCn1nnnc1-c1ccc(OC)c(S(=O)(=O)Nc2ccc(OC)cc2)c1
69	2.8%	1.1%	-4.6%	-2.6	COc1ccccc1-n1ccnc1SCC(=O)NCc1ccco1
70	-4.0%	3.3%	8.3%	9.1	Cc1ccc(NC(=O)c2cc(NC(=O)CCCC(=O)O)ccc2Cl)cc1Cl
71	nt	-0.7%	7.2%	nt	CCOC(=O)C1=C(C)NC(C)=C(C(=O)OCC)C1C(=O)OCC(=O)NC1(C#N)CCCCC1
72	-15.0%	-2.4%	-14.5%	-2.4	O=C(CCN1C(=O)c2ccccc2C1=O)N1CCCCCC1
73	nt	-3.6%	11.4%	nt	O=C1CCCCCCCN1Cc1ccccc1
74	-0.2%	0.6%	0.9%	nt	COc1ccc(NS(=O)(=O)c2ccc3c(c2)NC(=O)CC(=O)N3)cc1OC
75	-1.5%	-0.5%	7.5%	-7.8	COc1ccccc1NCC(=O)N/N=C/c1cccnc1
76	0.3%	0.6%	16.0%	2.8	COc1ccc(C2C3=C(CC(C)(C)CC3=O)OC(N)=C2[N+](=O)[O-])cc1 (stereo not given)
77	nt	-4.3%	23.1%	nt	O=C(c1cc(-c2ccco2)nc2ccccc12)N1CCN(Cc2ccccc2)CC1
78	0.4%	-1.4%	-11.5%	-11.3	O=C(Nc1nc(-c2ccc(Oc3ccccc3)cc2)cs1)C1=COCCO1
79	-1.7%	2.0%	-5.5%	-6.2	Cc1c(C(=O)NC(C)c2ccncc2)oc2ccccc12 (stereo not given)
80	-64.5%	0.3%	0.2%	7.2	O=C1C(C=Nc2ccc(F)cc2)=C(O)c2ccccc21
81	nt	0.1%	-9.7%	nt	O=C(OCC(=O)N1CCCC1)c1ccccc1C(=O)c1ccccc1

Results in Rango release inh, for some of the entries so far:
| nr | smiles | Rango release inh |
| --- | --- | --- |
| 33 | CCN(CC(=O)NCc1ccc(Cl)cc1)C(=O)/C=C/c1cc(OC)c(OC)c(OC)c1 | 18.5% |
| 50 | O=c1[nH]c(NCc2ccco2)nnc1Cc1ccccc1Cl | -0.7% |

Screening data: PubChem BioAssay, National Center for Advancing Translational Sciences (NCATS)

An excerpt; rates above refer to the full screens.
